# Source: PubChem
# Tgondii IFNg – blocks Toxoplasma gondii growth in the presence of IFN-gamma; Toxoplasma gondii growth in IFN-gamma-treated host cells; active compounds read low; reference of the scale not given here; activity change, negative = inhibition, %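 (about 20 µM by stock and volumes)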; actives 3.8% (n = 69,000); AID 1259416;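 active means below -70%; inconclusive means fit judged invalid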;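 further: host cells are HeLa cells infected with Toxoplasma gondii; parasite growth read as luciferase light; one replicate is shown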
# * = called active by the depositor; u = inconclusive; & = joins results of further samples.
SMILES,Tgondii IFNg
COc1ccc(NC(=O)C2C(=O)N(CCO)C3(C)CC2c2ccccc2O3)cc1 (stereo not drawn),122
Cc1[nH]cnc1CSCCNC(=O)CC1COCCN1 (stereo not drawn),2
CCc1cnc(N2CC[C@@H](c3ccc4ccccc4c3)[C@H](O)C2)nc1,-35
N#C[C@@H]1[C@@H](c2ccccc2-c2cccc(F)c2)[C@H](CO)N1C(=O)NC1CCCCC1,11
CCOC(=O)[C@@]12CC=CCN(C(=O)C(C)Sc3nc(C)cc(C)n3)[C@@H]1CCC2 (stereo partly drawn),-16
O=C(Nc1cscc1S(=O)(=O)c1ccc(Cl)cc1)c1ccccc1Cl,8
CCC(=O)Nc1ccc2c(c1)OC[C@@H](C)N(Cc1ccccc1)C[C@@H](C)[C@@H](OC)CN(C)C2=O,70
CCOc1ncccc1C(=O)N1CCOC(Cc2ccc(OC)cc2)C1 (stereo not drawn),-6
Nc1ncccc1CN1CCC(Cc2cccc(C(=O)O)c2)C1 (stereo not drawn),-4
COc1ccc(Oc2ccc(NC(=O)Nc3ccc(SC(F)(F)F)cc3)cn2)cc1,-88*
Cc1noc(C2CCCN2C(=O)c2cccc(NCc3sccc3C)c2)n1 (stereo not drawn),-2
COc1cc(OC)c2c(=O)c(OC)c(-c3ccccc3)oc2c1,44
O=C(Nc1ccc(OCc2ccccc2)cc1)NC1CCCc2ccccc21 (stereo not drawn),-40
O=C(NCc1ccccc1)c1cc(-c2cnc(N3CCCC3)nc2)cn1CC1CC1,-20
O=C1CC2C(CCN2C(=O)c2cscn2)N1CC1CCOCC1 (stereo not drawn),0
Cc1ccccc1-c1nc(Cn2nnc(C(=O)Nc3ccc(F)cc3F)c2C)c(C)o1,215
CCN1CCC2(CC1)OC(=O)C(C)=C2C(=O)NCc1ccc(C)cc1,8
O=C(c1ccc(Cl)cc1)C(CCN1CCCCCC1)c1ccccc1 (stereo not drawn),-45
CN(CC1(CO)CCC1)C(=O)Cc1noc2ccccc12,4
Cc1nn(-c2ccccc2)c2[nH]c(=O)c(CNC(C)c3cccs3)cc12 (stereo not drawn),-17
Cc1noc(C)c1S(=O)(=O)N(C)C[C@H]1OCCCC[C@H](C)Oc2ccc(NC(=O)CCC(F)(F)F)cc2C(=O)N([C@H](C)CO)C[C@@H]1C,45
Cc1oc(C2CCN(C(=O)c3ccc(C#N)cc3)CC2)nc1C(=O)N(C)C,55
O=C(c1cc2cccnc2n(Cc2ccc(Cl)cc2)c1=O)N1CCN(c2ccccc2F)CC1,-30
CCCCc1nc(-c2nccn2CCN2CCNC2=O)c(Cl)[nH]1,-3
Cc1ccc(NC(=O)c2c(O)c3cccnc3n(-c3cccc(F)c3)c2=O)cc1F,126
# Next part:
SMILES,Tgondii IFNg
Cc1nc(-c2cc(S(=O)(=O)N3CCCCC3C)c(C)s2)sc1C (stereo not drawn),-11
COCCN1CCN(C(=O)c2ccno2)Cc2ccc(C)nc21,-4
CN(Cc1nc2c(s1)CCCC2)C(=O)c1cn(CC2CCCNC2)nn1 (stereo not drawn),-48
CC(=O)N1CCC(C(=O)NC2CC(C)(C)Oc3cc(C)ccc32)CC1 (stereo not drawn),u
CCCCN(C)c1nc(-c2ccc(OC)cc2)nc2ccccc12,-64
COC(=O)C[C@@H]1CC[C@H]2[C@@H](COc3ccc(NC(=O)Nc4cccc(C#N)c4)cc3C(=O)N2C)O1,-18
COc1cccc(C(=O)N2CCC(C(=O)O)C2)c1 (stereo not drawn),-4
CCC(C(=O)N1CCC2(CC1)Nc1ccc(Cl)cc1-n1cccc12)c1ccccc1 (stereo not drawn),-128*
CN(C)CCN1Cc2ccccc2C2(CCN(c3ncccn3)CC2)C1,-1
COc1ccc(-c2ccc(C3[C@@H]4CN(C(=O)c5cnccn5)C[C@H]3N4)cc2)cc1 (stereo partly drawn),-40
COc1ccc(S(=O)(=O)N(C)C[C@H]2Oc3c(NC(=O)c4nc5ccccc5s4)cccc3C(=O)N([C@H](C)CO)C[C@H]2C)cc1,5
Cc1ccccc1Oc1ncccc1CNC(=O)C1COc2ccccc2O1 (stereo not drawn),4
CC1=C(C(=O)NCCc2ccccc2)C2(CCN(S(=O)(=O)c3cccs3)CC2)OC1=O,45
CC(=O)Nc1cccc(-c2ccc(C(=O)N3CCCC3)cn2)c1,-2
COc1ccc(CCC(=O)NCCc2sc(-c3ccc(F)cc3)nc2C)cc1,47
c1coc(CN2C[C@@H]3CCCO[C@H]3[C@@H](N3CCCC3)C2)c1,-32
C[C@]12CC[C@@H]3c4ccc(O)cc4CC[C@H]3[C@@H]1C[C@@H](O)[C@@H]2O[C@@H]1O[C@H](C(=O)O)[C@@H](O)[C@H](O)[C@H]1O,19
Cc1ccc(-c2csnn2)cc1NC(=O)CCC1C(=O)Nc2ccccc21 (stereo not drawn),18
Cn1cc(-c2nnn3c2COC(CNCc2ccc(F)cc2)C3)cn1 (stereo not drawn),-9
CN(CCNC(=O)CC12CC3CC(CC(C3)C1)C2)S(C)(=O)=O,-4
COCC(C)NC(=O)c1sc2ccccc2c1Cl (stereo not drawn),40
CCC(CC)NC(=O)c1ccc2nnc(C3CN(C(C)=O)CCN3C(C)C)n2c1 (stereo not drawn),2
COc1ncnc2c1CCN(S(=O)(=O)c1cn(C)cn1)CC2,-10
O=C(NOC(=O)c1ccccc1)c1ccccc1,36
CCCC(NC(=O)c1ccc[n+]([O-])c1)c1ccccc1 (stereo not drawn),6
# More structures follow:
SMILES,Tgondii IFNg
O=C(C[C@H]1CC[C@H]2[C@@H](COC[C@@H](O)CN2C(=O)c2ccc(F)cc2)O1)N1CCCCC1,23
O=C(Cn1cccnc1=O)N1CCC(c2cc(Cc3ccccc3)[nH]n2)CC1,-4
N#C[C@H]1[C@@H](c2ccccc2C2=CCCCC2)[C@@H](CO)N1C(=O)Nc1ccccc1F,0
C[C@@H]1CN([C@@H](C)CO)C(=O)c2cc(C3=CCCC3)cnc2O[C@@H]1CN(C)C(=O)Nc1ccc(C(F)(F)F)cc1,-21
O=C(Nc1ccccc1Cl)N1C[C@@H]2[C@H](c3ccccc31)[C@@H](CO)N2Cc1ccncc1,18
Cc1oc(-c2ccc(NC(=O)C3CCCCC3)cc2)nc1Cn1cccn1,-54
CCCC12CN3CC(C)(CN(C1)C3c1ccc(OCC)c(OC)c1)C2=O (stereo not drawn),-22
Cc1nc2c(C)cccc2cc1C(=O)Nc1cccc(C(=O)N2CCCCC2)c1,25
Cc1cccc(NC(=O)N2CCn3nc(C(=O)NCCN(C)C)cc3C2)c1,94
CCOC(=O)c1cnc(SCC(N)=O)nc1N,-10
CCN(CC)C(=O)c1cn[nH]c1C1CCCCN1C(=O)c1cccc(-c2ccc(F)cc2)c1 (stereo not drawn),-5
N#C[C@@H]1[C@@H](c2ccccc2)[C@H](CO)N1S(=O)(=O)c1cccc(F)c1,0
CCOC(=O)C1CCCN(S(=O)(=O)c2ccc3[nH]c(=O)ccc3c2)C1 (stereo not drawn),-31
CCOc1ccccc1CNC(=O)C1=C(C)C(=O)OC12CCN(S(=O)(=O)c1cccs1)CC2,13
CCCCCC(=O)c1sc(Cl)c(Cl)c1Cl,-42
CCCc1cc(C(=O)N(C)Cc2cc(N(C)C)nc(C3CCCNC3)n2)no1 (stereo not drawn),-25
N#CC1CCN(CCS(=O)(=O)c2ccc(Cl)cc2)CC1,6
COc1ccc(NC(=O)N2CCCCC2c2cccnc2)cc1 (stereo not drawn),79
CCCCc1c(O)c2cccc3c4ccccc4n(c1=O)c23,263
CC(C)c1nccn1CCCn1cnc(-c2ccccc2)c1-c1cnn(C)c1,-1
CC(c1nccs1)N(C)S(=O)(=O)NCc1ccccc1 (stereo not drawn),-7
Cc1nc(CCNC(=O)c2cc(C(C)C)on2)sc1C,7
CC(C)OC[C@H]1CCC[C@]12CN(S(=O)(=O)c1cccs1)CCO2,-26
CCN(C[C@@H]1[C@@H](c2ccccc2)[C@H](CO)N1S(C)(=O)=O)C(=O)C1CCCC1,-10
O=C(c1ccc(Cn2cnnn2)cc1)N1[C@H]2CCNC[C@@H]1CC2,7
# Additional entries
SMILES,Tgondii IFNg
O=C(CSc1nnnn1Cc1ccccc1)c1ccccc1,61
Cc1nc(-c2ccc(OCC(C)C)c(C#N)c2)sc1C(=O)O,386
Clc1ccc2c(c1)CCc1cccnc1C2=C1CCNCC1,16&5&-39
O=C(O)CSc1nnc(Cc2ccccc2F)n1-c1ccccc1Cl,9
COc1ccccc1-n1c(=O)n(Cc2nc(-c3ccccc3)oc2C)c(=O)c2cccnc21,6
O=C(NCC[C@H]1CC[C@H](NC(=O)c2ccccc2F)[C@H](CO)O1)c1cnccn1,-5
COC1COC2(CCCN(C(=O)c3ccoc3)C2)C1 (stereo not drawn),-33
CC(C)(C)OC(=O)NCCNC(=O)c1cccs1,-42
Cc1ccc(-c2nc(Cn3c(=O)c4c(C)cc(C)nc4n(Cc4ccco4)c3=O)c(C)o2)cc1,-5
O=C(CCn1ccc(=O)[nH]c1=O)N1CC(c2ccccn2)C1,1
Cc1cccc(-c2nc(CN3CCc4c(sc5c4CCCC5)C3c3ccccc3)c(C)o2)c1 (stereo not drawn),-35
CCCCS(=O)(=O)N1CCC2(CC1)CC2,80
Cc1cnn(Cc2ccc(C(=O)N3CCN(c4nsc5ccccc45)CC3)o2)c1,16
CN(C)C(=O)NC[C@H]1CCC[C@]2(CCN(Cc3nccs3)C2)O1,-40
O=C(NCC[C@@H]1CC[C@@H](NS(=O)(=O)Cc2ccccc2)[C@@H](CO)O1)C1CCCCC1,-35
CC(=O)N(c1ccc(NS(=O)(=O)c2cccs2)cn1)S(=O)(=O)c1cccs1,-102*
CN1CC2(CCCN(C(=O)c3ccc(Cn4ccnc4)o3)C2)OC1=O (stereo not drawn),3
COCCN(C)C(=O)c1ccc2nnc3ncn(CC(C)C)c3c2c1,2
O=C([C@@H]1CCCN1)N1CCc2onc(-c3ccc(Cl)cc3)c2C1,-16
Cc1ccc(-c2cn[nH]c2C2CCCN(C(=O)C3(Cn4ccnc4)CC3)C2)cc1 (stereo not drawn),-7
Cc1ncc(CN2CCC3(CC2)CC(NS(C)(=O)=O)CCO3)[nH]1 (stereo not drawn),2
O=C(Nc1cc(F)ccc1F)c1c(O)c2cccnc2n(-c2ccc(F)cc2)c1=O,138
O=C(c1ccc(Br)o1)N1CCC2(CC1)Nc1cc(F)ccc1-n1cccc12,-27
COc1ccc(-c2nc(-c3cc4cc(OC)ccc4oc3=O)cs2)cc1,2
O=C(CCn1nnc2ccccc21)N1CCCC(c2ccn[nH]2)C1 (stereo not drawn),2
# More results.
SMILES,Tgondii IFNg
CCc1ccc(S(=O)(=O)N2CCC3(CC(C(=O)N(C)C(C)C)=NO3)C2)cc1 (stereo not drawn),-27
CCOc1ccccc1C(=O)N1CCN(S(=O)(=O)c2cc3c4c(c2)CCC(=O)N4CCC3)CC1,15
Nc1cccc2c1nnn2C1OC(CO)C(O)C(O)C1O (stereo not drawn),24
Cc1ccc(C)c(NC(=O)N2CCN(Cc3nc(-c4cccc(Cl)c4)oc3C)CC2)c1,3
CCOC(=O)c1sc2sc(C(=O)OCC)c(-c3ccco3)c2c1N,-35
CN1CCN2C[C@@H](NC(=O)C3(Cn4cccn4)CC3)C[C@H]2C1,-47
COc1cc(-c2nc(-c3ccccc3)c(-c3cccs3)[nH]2)cc(OC)c1OC,38
CCc1cccc(NC(=O)Cn2ncc3c(N4CCN(c5ccccn5)CC4)ncnc32)c1,-62
COc1ccc(-c2nn(CN3CCCCC3)c(=S)n2-c2ccccc2)cc1,21
O=C(NCc1ccccn1)[C@@H]1C[C@H]2CCN(c3ncccn3)C[C@@H]2O1,-35
Cc1cc(=O)oc2cc(O)cc(O)c12,19
CCCNC(=O)N1[C@@H](CO)[C@@H](c2ccccc2)C12CN(CCC(F)(F)F)C2,48
O=C(CCc1nc(-c2ccncc2)no1)N1CCc2ncc(Cl)cc2C1,26
CN(Cc1cc(-c2ccccc2)no1)Cc1ccc(C2CCCO2)s1 (stereo not drawn),-38
N#C[C@@H]1[C@@H](c2ccccc2)[C@@H](CO)N1C(=O)c1cc(Cl)cc(Cl)c1,1
CN1c2ccc(Br)cc2[C@@H]2[C@@H](CCN2C(=O)Cc2ccccc2)[C@H]1CO,-1
CCCNC(=O)N(C)C[C@@H]1[C@@H](c2ccccc2)[C@H](CO)N1C(=O)c1ccccc1,-48
Cc1cc(C)n(CC(=O)N(Cc2ccccc2)Cc2nc(C)ncc2-c2ccccn2)n1,10
O=C(Cc1ccc(F)cc1)N1CCC2(CC1)Nc1ccc(Cl)cc1-n1cccc12,-59
O=C(Nc1cnn(-c2ncncc2N2CCCC2)c1)C1CCCC1,111
COc1cc(N)c(Cl)cc1C(=O)N[C@@H]1CCNCC1OC (stereo partly drawn),14

# Some of the compounds tested. The share of hits here may be higher or lower than overall.
